Menin MLL FP FL = inhibitors of human menin-MLL interaction, wild-type MLL peptide. Fluorescence polarization, fluorescein-MLL peptide displacement from menin. FP activity change, % at 61.4 µM. 290,000 tested, under 10 active. AID 1766; inconclusive = falling polarisation curve, or a change in total fluorescence; inactive = total fluorescence flat and polarisation flat or rising; no compound was filed as active; the % refers to the polarisation; negative = inhibition;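 further: % of control where 0% means no effect; inhibitors lower the polarisation; unlabelled MLL peptide was the positive control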
D2 ag = agonists of human D2 dopamine receptor (beta-arrestin); DiscoveRx PathHunter D2 beta-arrestin, luminescence, 90 min; 100% = 57 uM dopamine signal; activation, % (concentration not given with the values); hit rate 0.084% among 360,000; in the data active = activation above about 40%; inconclusive = about 15% to 40%; inactive = below about 15%; further: compound concentration not given in the record; the text of the record calls up to 30% inactive
Target sequence (P14416 whole entry, looked up): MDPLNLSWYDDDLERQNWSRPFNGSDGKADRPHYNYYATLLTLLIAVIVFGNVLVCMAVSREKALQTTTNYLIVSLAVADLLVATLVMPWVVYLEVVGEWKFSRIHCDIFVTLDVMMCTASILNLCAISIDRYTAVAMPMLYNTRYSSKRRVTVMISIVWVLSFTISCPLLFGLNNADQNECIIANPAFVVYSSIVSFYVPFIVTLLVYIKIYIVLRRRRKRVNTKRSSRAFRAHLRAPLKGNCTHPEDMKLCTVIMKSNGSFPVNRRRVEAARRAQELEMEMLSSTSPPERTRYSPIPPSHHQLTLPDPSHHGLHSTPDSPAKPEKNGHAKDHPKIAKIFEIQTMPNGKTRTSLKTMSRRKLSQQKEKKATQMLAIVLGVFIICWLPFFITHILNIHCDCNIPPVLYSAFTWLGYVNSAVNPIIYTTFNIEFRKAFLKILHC
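DiscoveRx PathHunter D2 beta-arrestin cells (2,100/well) attached overnight, then compound-stimulated 90 min at 37 C in HBSS/10 mM HEPES/0.1% Tween-20 buffer; beta-galactosidase complementation read by luminescence after 1 h at ambient temperature. Dopamine 57 uM final (EC100) as control.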
ClpP mod = qHTS Assay for Activators of ClpP; hit rate 1.9% among 340,000; Potency, µM (top dose mostly 57.5 µM), for inactives: top-dose activity change, negative = active; ATP-dependent Clp protease proteolytic subunit (Bacillus subtilis (strain 168)), P80244; purified B. subtilis ClpP, FRET peptide cleavage, 20 min; active = well fitted falling curve with a large enough effect; inconclusive = small, poorly fitted or top-dose-only effect; inactive = no such curve, though single readings can be large or run the other way; further: potency means the concentration at half of the fitted maximal effect; the source files actives as falling curves though it sought activators and does not explain the sign; nearly all actives have a fitted effect of over 65% in size; many hits overshoot -100%
Target sequence (P80244 whole entry, looked up): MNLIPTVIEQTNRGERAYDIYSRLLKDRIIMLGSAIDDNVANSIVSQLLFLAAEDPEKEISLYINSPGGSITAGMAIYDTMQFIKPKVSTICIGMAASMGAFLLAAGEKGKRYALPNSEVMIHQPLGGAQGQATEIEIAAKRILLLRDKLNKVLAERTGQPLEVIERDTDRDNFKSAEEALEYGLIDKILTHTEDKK
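Purified B. subtilis ClpP, 10 microg/mL final in Tris/HCl pH8 with KCl, BSA, glycerol and Tween-20, cleaved an Abz/nitrotyrosine-quenched decapeptide. Fluorescence (ex 320, em 430) was read at 0 and 20 min at room temperature. Delta was normalized to 5.8 microM ADEP and DMSO/no-enzyme controls.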
PINK1 modulator = changes PINK1 expression. PINK1 immunofluorescence, high-content cytometry, 24 h. Potency, µM (doses to about 76.6 µM), inactives show at the highest dose activation (PINK1 increase), actives largely listed as activators. hit rate 0.2% among 410,000; active = well fitted activation curve with a large enough effect; inconclusive = small, poorly fitted or top-dose-only effect; inactive = flat fitted curve, though single readings scatter; cell line not stated here;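 further: potency means the concentration at half of the fitted maximal effect; % of control where 0% means no effect; nearly all actives have a fitted effect of over 65% in size; a mitochondrial uncoupler was the plate control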
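Decision-based qHTS: stable cells, 24 h exposure to five compound concentrations, CCCP as control. Fixed cells stained for PINK1 plus nuclear, mitochondrial and cell markers, cytometer read.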
gsp ag = agonists of gsp mutant (McCune-Albright syndrome). gsp mutant cells, cAMP HTRF, 30 min; control for the full effect not named in the record. Potency, µM (doses to about 76.9 µM), inactives show at the top dose activation (cAMP increase), actives largely listed as activators. hit rate 0.13% among 340,000; active = well fitted activation curve with a large enough effect; inconclusive = small, poorly fitted or top-dose-only effect, or another doubt; inactive = no such curve, though single readings can be large or run the other way; cell line not stated here;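 further: phosphodiesterase inhibitor Ro 20-1724 added with compounds to block cAMP breakdown; potency means the concentration at half of the fitted maximal effect; nearly all actives have a fitted effect of over 60% in size; about a fifth of the inactives were tested at one dose only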
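Cells in DMEM/10% FBS with G418 were pretreated with compounds in DMSO plus […] (300 uM stock) for 30 min at 37C. cAMP was measured by HTRF (cAMP-d2 plus anti-cAMP antibody-K) after 30 min at room temperature.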
Sfp inh = Sfp phosphopantetheinyl transferase inhibition; Q9F4F7; Potency, µM, without a hit: max response, negative = inhibition, most hits filed as inhibitors; AID 1490; hit rate 3.5% among 310,000; Biochemical Sfp PPTase activity, qHTS; active means well fitted inhibition curve with a large enough effect; inconclusive means small, poorly fitted or top-dose-only effect, or another doubt; inactive means no such curve, though single readings can be large or run the other way;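 further: the enzyme is Sfp with the accession as filed and its product quenches rhodamine fluorescence; potency means the concentration at half of the fitted maximal effect; 0% = enzyme reaction without inhibitor and -100% = no enzyme wells; top concentration of the series not given in the record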
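With Hepes-Na pH 7.6 buffer containing 10 mM MgCl2, Sfp (15 nM) modified BHQ-2-YbbR (12.5 uM) using rhodamine-CoA (5 uM). Two reads 30 minutes apart at 525/598 nm yielded each well's rate.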
gsp antagonist = antagonizes gsp, the McCune-Albright syndrome mutation; gsp-mutant cells, cAMP HTRF, 30 min; control for the full effect not named in the record; Potency, µM (series often up to 76.9 µM), inactives show at the highest dose activity change, negative = inhibition, hits mostly inhibitors; hit rate 0.4% among 340,000; AID 624288; active = falling curve of any shape with a large fitted effect; inconclusive = falling curve, mostly with a smaller effect; inactive = flat or rising curve; cell line not stated here;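 further: intracellular cAMP measured with PDE inhibitor Ro 20-1724 present during compound exposure; potency means the concentration at half of the fitted maximal effect; on the % scale 0 is the no-effect control and ±100 the full control effect; nearly all actives have a fitted effect of over 65% in size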
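Cells in G418 medium, seeded 16-24 h, 37C; buffer exchange to DPBS + 1 mM CaCl2, 0.5 mM MgCl2, 0.05% BSA; cpds in DMSO + […] (300 uM stock), 30 min 37C; HTRF cAMP detection.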
Starred values were filed as active, the others as inactive; u = inconclusive; x = no result given; [ ] = dose if it differs, or a comment.

Order of results – Menin MLL FP FL | D2 ag | ClpP mod | PINK1 modulator | gsp ag | Sfp inh | gsp antagonist
CCOP(=O)(OCC)C(Nc1cc(Cl)cc(Cl)c1)c1cccc(O)c1 (configuration not stated)
  -1.2 | -2.4 | 1.5% | 18.5% | u | 10.9% | -21.2%
COc1ccc(Nc2ncc(C(=O)N3CCC4(CC3)OCCO4)c3ccccc23)cc1
  1.0 | -0.7 | -0.7% | 2.4% | -56.7%[inhibitor] | 9.4% | -13.4%
CCC(C)NC(=O)c1c(N)n(CC2CCCO2)c2nc3ccccc3nc12 (configuration not stated)
  5.1 | -1.3 | 35.5µM* | 4.6% | -8.7% | -14.8% | -0.4%
Cc1ccc(-c2nc3ccccc3c(=O)n2-c2ccncc2)cc1
  4.7 | -0.5 | -2.1% | 2.4% | -28.9% | 5.5% | 0.0%
CC(=O)NC1CC2CCC(C1)N2 (configuration not stated)
  1.5 | -0.2 | -4.6% | 0.9% | -44.1%[inhibitor] | 13.7% | 3.6%
CCOC(=O)C1(CCc2ccccc2)CCN(Cc2ccc(NC(C)=O)cc2)CC1
  -3.9 | -3.8 | -3.1% | -1.5% | -39.9%[inhibitor] | 2.6% | 9.3%
CN1CCN(c2ncc(C=O)s2)CC1
  -2.2 | -0.7 | -5.0% | 0.7% | u | 17.9% | 9.5%
NC(Cc1ccc(F)cc1)c1csc(Nc2ccccn2)n1 (configuration not stated)
  x | 2.9 | -2.5% | 7.5% | x | x | x
Cc1nn(Cc2ccccc2)c(C)c1C(=O)O
  -8.4 | -4.4 | x | -0.5% | -0.6% | 20.0% | 3.9%
COC(=O)C1=C(c2ccc(OCc3ccccc3)cc2)C[C@@H]2CC[C@H]1N2C
  x | -1.9 | 0.3% | 6.4% | 11.3% | x | x
CSc1nc(N2CCN(C)CC2)c2ccccc2n1
  0.0 | -5.4 | x | 1.8% | 14.7%[15.4 µM] | 13.5% | -45.6%
COc1ccc(OC(=O)N(C)C)c(CN(C)C)c1
  1.5 | -1.8 | -0.9% | 0.4% | u | 19.9% | 0.5%
Cc1cc(OC(=O)c2ccco2)c2c3c(c(=O)oc2c1)CCC3
  -0.9 | 0.6 | -3.9% | -5.0%[38.3 µM] | -0.4% | 7.5% | 8.1%
CC(C)c1oc(=O)cc2c1[C@@H](O)[C@H]1OC(=O)[C@@]3(C)C[C@@H](O)[C@@H](O)[C@@]2(C)C13 (some centres not stated)
  4.7 | -0.9 | -0.6% | -0.5% | x | -2.9% | 10.4%
S=C(NCCc1ccccc1)N1Cc2cc(N3CCCCC3)ccc2-n2nncc2C1
  x | -2.0 | 31.6µM* | 1.1% | x | x | x
Cn1cccc1/C=C1/C(=O)NC(=S)N(Cc2ccc(F)cc2)C1=O
  u | 9.5 | x | 3.9% | -5.3%[15.4 µM] | u | -24.7%
CCOC(=O)c1c(NC(=O)c2c(N)n(CCCOC)c3nc4ccccc4nc23)sc2c1CCCC2
  u | 0.4 | -10.2% | x | 6.6% | 56.2µM* | 1.7%
CCOP(=O)(Nc1ccc2c(c1)C(=NNC(N)=S)c1ccccc1-2)OCC
  x | -6.5 | -5.5% | 0.3% | 2.2% | x | -3.6%
c1ccc(CNC2CCCCCCC2)cc1 (tested in a mixture with another compound)
  x | -3.2 | -1.6% | -5.7% | 10.4% | x | 5.0%
COC(=O)c1cn(S(=O)(=O)c2ccccc2)c2ccccc12
  0.2 | -2.1 | x | 9.8% | -29.8% | u | -7.1%

One compound at a time, from the list above. Screens in order: Menin MLL FP FL	D2 ag	ClpP mod	PINK1 modulator	gsp ag	Sfp inh	gsp antagonist
Entry for c1ccc(CNC2CCCCCCC2)cc1 (tested in a mixture with another compound) : x	-3.2	-1.6%	-5.7%	10.4%	x	5.0%
Entry for Cn1cccc1/C=C1/C(=O)NC(=S)N(Cc2ccc(F)cc2)C1=O : u	9.5	x	3.9%	-5.3%[15.4 µM]	u	-24.7%
Entry for CCOP(=O)(Nc1ccc2c(c1)C(=NNC(N)=S)c1ccccc1-2)OCC : x	-6.5	-5.5%	0.3%	2.2%	x	-3.6%

Next part.
Order of results – Menin MLL FP FL | D2 ag | ClpP mod | PINK1 modulator | gsp ag | Sfp inh | gsp antagonist
c1cc2c(cc1[C@H]1OC[C@H]3[C@@H]1CO[C@@H]3c1ccc3c(c1)OCO3)OCO2
  1.4 | 3.7 | 0.3% | -0.1% | x | -14.3% | -20.6%
COCCNC(=O)N1[C@H]2CC[C@@H]1C(C(=O)OC)=C(c1ccc(OC(F)(F)F)cc1)C2
  x | -10.3 | -2.8% | -0.9% | -2.0% | x | -9.3%
CCN(CC)CCN/N=C(\C)c1c(O)[nH]c(=O)[nH]c1=O
  1.3 | -2.4 | 0.2% | -0.4% | 18.1% | u | 6.9%
CCOC(=O)C1C(=O)NC23CCCC2C1c1ccccc1O3 (configuration not stated)
  0.6 | -4.2 | 0.7% | -0.1% | -18.9% | 15.2% | -5.1%
CCOc1ccc(-c2cc(C)[n+](CCO)c(-c3ccc(OCC)cc3)c2)cc1
  -2.6 | 2.1 | 3.3% | 0.3% | 16.8% | 1.9% | 6.2%
CCOC(=O)c1c(-c2ccccc2)oc2ccc(OC(=O)N(C)C)cc12
  1.4 | -1.5 | 3.16µM* | -9.3%[38.3 µM] | -3.1% | -14.7% | -15.7%
COC(=O)c1ccccc1OP1(=O)COc2ccccc2OC1
  -3.2 | -1.8 | 1.5% | -0.7% | -50.4%[inhibitor] | 12.4% | -2.6%
CCCCN1C(=O)NC(=O)C2(Cc3c(nc4ccccn4c3=O)N3CCc4ccccc4C32)C1=O (configuration not stated)
  -2.0 | -2.7 | -6.2% | -2.4% | 9.4% | -22.5% | -7.1%
O=C(Nc1ccc(Br)cc1)c1nn(C23CC4CC(CC(C4)C2)C3)cc1Br
  -6.3 | -0.6 | -12.4% | 9.9% | -17.7% | 11.0% | 7.3%
C=CCn1c(=O)c(C=Nc2c(OC)cccc2[N+](=O)[O-])c(O)n(CCCC)c1=O
  21.2 | -8.1 | x | 4.2% | -0.7%[15.4 µM] | -12.3% | -2.4%

Other entries follow.
Molecule | Menin MLL FP FL | D2 ag | ClpP mod | PINK1 modulator | gsp ag | Sfp inh | gsp antagonist
COC(=O)C(O)(c1ccc(N(C)C(=O)c2ccc(Cl)c(Cl)c2)cc1)C(F)(F)F (configuration not stated) | -0.1 | -0.1 | 1.1% | 2.1% | 1.8% | 0.2% | -3.3%
COc1ccc(CN(CCc2c[nH]c3ccccc23)Cc2ccc(OC)cc2)cc1 | x | -2.9 | 1.3% | 1.2% | -5.3% | x | -23.5%
O=C(c1ccc(Cl)cc1)C1CCCN(Cc2ccon2)C1 (configuration not stated) | -0.6 | -4.5 | 1.2% | 0.9% | -7.8% | 21.4% | 1.9%
N#CC12c3ccccc3C(=O)N1Cc1cnnn1-c1ccccc12 (configuration not stated) | x | -4.0 | 5.4% | -0.4% | x | x | x
Cc1nc2ccccc2c2c1C(=O)N(C(C)C)C2=O | -0.9 | -4.5 | 0.3% | x | u | 13.4% | -0.5%
O=C(Nc1ccc(Cl)cc1C(=O)c1ccccc1)c1ccccc1 | -2.1 | -4.5 | -1.8% | 9.2% | -0.7% | -10.4% | u
COc1ccccc1OCC#CCN1CCOCC1 | -0.3 | -3.7 | x | 1.6% | -1.0%[15.4 µM] | u | x
Cn1c(=O)[nH]c2nncnc2c1=O | x | -8.4 | x | 0.6% | 1.8%[15.4 µM] | x | -9.9%
COc1ccc(C(c2nnnn2-c2ccc3c(c2)OCCO3)N2CCC3(CC2)C(=O)NCN3c2ccccc2)cc1 (configuration not stated) | x | 4.7 | -0.9% | 4.4% | x | x | x
O=C(CCS(=O)(=O)c1ccccc1)Nc1nnc(-c2ccco2)o1 | x | -0.3 | -0.9% | -0.1% | 7.6% | u | 2.6%
COc1cccc(N(C(C)=O)C2=NCCCS2)c1 | -4.3 | -1.1 | 0.1% | 4.7% | 2.7% | 8.0% | 4.6%
O=C(c1ccc(F)cc1Cl)N1CCC2(CC1)OCCO2 | -1.6 | -1.6 | -0.6% | -0.2% | 4.1%[15.4 µM] | 5.7% | -1.9%
COc1ccc(OCC(=O)N2CCN(Cc3nc4cc([N+](=O)[O-])ccc4n3C)CC2)cc1 | 4.3 | -2.8 | -1.2% | 1.5% | u | 1.4% | -17.8%
COc1ccccc1Sc1ccccc1CC(C)N (configuration not stated) | -0.6 | -3.8 | 1.0% | 4.3% | u | -16.5% | 29.9%
COc1ccc(CN2Cc3cc(-c4ccc(OC)cc4)ccc3-n3nncc3C2)cc1 | x | -2.5 | u | 0.7% | x | x | x
O=S(=O)(c1ccc(Cl)cc1)N1CN2CCN(C2)C1 | 0.7 | -2.5 | 1.1% | 4.7% | 8.8% | 10.7% | 11.5%
O=C(O)CNC(=O)C(CS)Cc1ccccc1 (configuration not stated) | 2.8 | -2.1 | 0.9% | 1.9% | x | 0.794µM* | 5.5%
COC(=O)[C@]12OC[C@]34C([C@@H](O)[C@@H]1O)[C@]1(C)CC(=O)C(O)=C(C)[C@@H]1C[C@H]3OC(=O)[C@H](O)[C@@H]24 (some centres not stated) | 1.0 | -1.9 | -0.2% | 1.5% | x | 19.7% | 8.3%
COc1ccc(N2C(=O)/C(=C/c3ccc(OC)c(OC)c3)C(=O)NC2=S)cc1 | -1.8 | -5.2 | -0.4% | 0.5% | 0.5% | -94.0% | 6.0%
COc1ccc(-c2nc3ccccc3c(=O)n2-c2ccc(OC)cc2)cc1 | -0.1 | -0.6 | -0.4% | 0.9% | 26.8% | -0.6% | -17.6%
CC1CN=C(NCc2ccncc2)S1 (configuration not stated) | -0.8 | -3.2 | -9.1% | -0.7% | 6.5% | 13.7% | 6.9%

Screening data deposited in PubChem BioAssay by National Center for Advancing Translational Sciences (NCATS).

Not all compounds are listed (hit frequency here may not be typical).
